Screens from PubChem.
Vif A3G = inhibitors of Vif binding to APOBEC3G peptide, primary screen, biochemical, TR-FRET, GST-Vif 1-94, biotin-A3G peptide, dose response retest (AID 1117319). Virion infectivity factor (Human immunodeficiency virus type 1 group M subtype B (isolate …. TR-FRET GST-Vif / biotin-A3G peptide binding; higher % means a stronger effect; test concentration not given here; strong numbers were not always called active. inhibition, %; hits with a dose series show IC50 in µM. 260,000 tested, 0.57% active;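 active means above the screen mean plus three standard deviations and confirmed in dose response; inconclusive means results disagree or hit not tested in dose response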;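 further: Vif residues 1-94 fused to GST binding biotinylated APOBEC3G peptide 110-148; 0% = full assay without inhibitor and 100% = GST in place of GST-Vif; retest series ran down from 100 µM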
Beta2AR agonist = beta2AR agonists driving receptor internalization, primary screen, cell-based, FAP fluorogen, flow cytometry; Beta-2 adrenergic receptor (Homo sapiens), P07550; Am2.2-beta2AR cells; reference of the scale not given here; response, % (concentration not given with the values); 340,000 tested, 0.43% active; AID 504454, 2011;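 active means response above a set limit, near 3 SD of response in nonfluorescent compounds, cut at about 42% in these data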;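 further: stock transfer was 100 nL into about 11 µL; a reference agonist was the positive control; negative values mostly stem from fluorescent compounds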
Target sequence (P07550 whole entry, looked up): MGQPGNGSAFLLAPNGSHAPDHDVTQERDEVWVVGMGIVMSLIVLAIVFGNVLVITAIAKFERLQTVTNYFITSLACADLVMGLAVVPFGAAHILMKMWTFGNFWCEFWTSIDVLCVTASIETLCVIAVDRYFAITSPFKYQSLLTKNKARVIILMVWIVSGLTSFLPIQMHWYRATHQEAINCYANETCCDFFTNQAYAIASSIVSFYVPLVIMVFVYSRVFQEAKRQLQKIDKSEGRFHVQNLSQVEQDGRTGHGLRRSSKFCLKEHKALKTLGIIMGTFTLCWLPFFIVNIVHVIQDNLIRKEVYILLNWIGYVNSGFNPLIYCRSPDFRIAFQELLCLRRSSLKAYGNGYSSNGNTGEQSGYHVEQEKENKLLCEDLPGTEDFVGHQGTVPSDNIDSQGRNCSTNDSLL
Calb FLC = C. albicans growth inhibition with fluconazole, primary screen, CaCi-2 strain, Alamar Blue fluorescence; C. albicans CaCi-2 (fluconazole-resistant clinical isolate) + fluconazole, 48 h; growth inhibition, % (concentration not given with the values); 300,000 tested, 0.57% active; AID 1979, 2009;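 active means most replicates above 75%; inconclusive means exactly half above 75%; inactive means most below 75%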;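 further: all wells also contain fluconazole at 8 µg/ml as a sub-toxic cotreatment; 0% = median of DMSO wells and 100% = median of geldanamycin control wells; wells of about 8 µL received 7.5 nL stock; the first replicate is given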
ALR inh = inhibitors of human ALR sulfhydryl oxidase, primary screen, biochemical, H2O2 detection, HRP-luminol luminescence, single point. FAD-linked sulfhydryl oxidase ALR (Homo sapiens), P55789. purified ALR, DTT oxidation. inhibition, % (no concentration beside the values). 290,000 tested, 3.8% active. AID 485317, 2010;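 active means mean and each replicate at 75% or more; inconclusive means only one of the two met; inactive means neither met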;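 further: stock transfer was 7.5 nL into about 7.5 µL; 0% = neutral wells and 100% = wells with inactivated enzyme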
LANA-H2B inh = blockers of LANA interaction with H2A/H2B – biochemical, FP readout, HTS, primary screen; Protein LANA1 (Human herpesvirus 8 type P (isolate GK18)), Q9QR71; cell-free LANA-H2A/H2B peptide, fluorescence polarization; inhibition, % (concentration not given with the values); 320,000 tested, 0.6% active; AID 2629, 2010; in the data active means inhibition mostly above about 10%, no sharp cut-off; inactive means mostly below about 6.7%;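 further: stock transfer was 7.5 nL into about 10 µL; 0% = median of vehicle wells and 100% = median of positive control wells; one replicate is shown; the record names a cut of 25% in any replicate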
HNF4A DNA FP = change in binding of human HNF4A to DNA, primary screen, biochemical, fluorescence polarization, FITC-DNA. Hepatocyte nuclear factor 4-alpha (Homo sapiens), P41235. 1 h. activity change, % at 10 µM. 360,000 tested, 0.3% active. AID 1224865, 2016; in the data active means activity change above about 30%, passing the limit was not always enough;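 further: controls were the assay level and a saturating level of protein; the project sought stronger binding though the title names inhibitors; some compounds called inactive have numbers as strong as hits; positive values seem to mean higher polarization but the record does not say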
Target sequence (P41235 whole entry, looked up): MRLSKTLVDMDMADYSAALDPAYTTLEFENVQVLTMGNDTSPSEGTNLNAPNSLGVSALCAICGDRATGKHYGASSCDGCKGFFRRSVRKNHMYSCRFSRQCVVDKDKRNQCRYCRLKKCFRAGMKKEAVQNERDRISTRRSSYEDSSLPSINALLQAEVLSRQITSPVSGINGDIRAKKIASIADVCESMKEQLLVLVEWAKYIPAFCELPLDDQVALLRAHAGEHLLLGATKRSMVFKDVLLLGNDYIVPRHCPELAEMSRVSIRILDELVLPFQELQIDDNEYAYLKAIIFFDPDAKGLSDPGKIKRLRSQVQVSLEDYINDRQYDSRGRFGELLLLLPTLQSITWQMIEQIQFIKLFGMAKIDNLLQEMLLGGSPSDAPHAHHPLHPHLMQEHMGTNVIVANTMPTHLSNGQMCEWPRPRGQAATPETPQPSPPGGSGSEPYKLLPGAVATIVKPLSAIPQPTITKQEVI
RanGTP-Imp inh = inhibitors of RanGTP-importin-beta interaction, primary screen, biochemical, FRET, CFP-Ran, YFP-importin-beta, homogeneous; inhibition, % (no concentration beside the values); AID 2216, 2009; cell-free CFP-Ran/YFP-importin-beta FRET ratio; 300,000 tested, 1.1% active; Ran GTPase (GTP-bound) - importin-beta complex;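 active means most replicates above 15%; inconclusive means exactly half above 15%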;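 further: 0% = DMSO wells and 100% = Ran loaded with GDP instead of GTP; wells of about 40 µL received 100 nL stock; the first replicate is given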
* marks the source's active call; other numbers are inactive results; ? = inconclusive; nt = no result given.

canonical_smiles	Vif A3G	ALR inh	Calb FLC	LANA-H2B inh	HNF4A DNA FP	RanGTP-Imp inh	Beta2AR agonist
CCOC(=O)c1c(S(=O)(=O)NCC(=O)Nc2ccc(C)cc2)c(C)n(C)c1C	-1.9%	-1.2	-26.6	-0.7	0.1	2.6	-8.0
CCOC(=O)c1ccc(NS(=O)(=O)c2c(C)nc3sccn3c2=O)cc1	nt	-6.8	-1.6	-0.6	8.4	1.7	-5.9
CCCOc1ccc(C2c3c(oc4ccccc4c3=O)C(=O)N2CCCN2CCOCC2)cc1 (centres undefined)	5.7%	-1.0	-1.9	-2.8	3.5	-5.0	-7.1
Cc1ccc(N/C=C/C(=O)c2ccccc2)cc1Br	-4.2%	-17.5	-13.3	0.6	-1.6	1.4	5.2
COCCn1c(SCC(=O)Nc2cc(C)on2)nc2c(c1=O)SC(C)C2 (centres undefined)	6.3%	nt	-3.5	-3.5	-2.7	-1.1	-6.1
CN(C)S(=O)(=O)n1cc(/C=C(\NC(=O)c2ccccc2)C(=O)N2CCCC2)c2ccccc21	nt	nt	41.5	1.3	-3.8	-1.8	-16.5
Cn1ncc2c(Sc3ccc(Cl)cc3)ncnc21	-1.2%	-28.6	3.1	0.0	-2.7	1.0	-2.4
Cc1ccc(NC(=O)CN(C)C(=O)C(C)OC(=O)c2ccccc2NCCO)cc1 (centres undefined)	0.5%	-3.3	0.4	-7.2	3.8	nt	2.3
COc1ccc(OC)c(NC(=O)CN(c2ccc(OC)c(Cl)c2)S(C)(=O)=O)c1	5.2%	-11.4	10.3	0.5	-2.5	-2.0	-8.9
Cc1noc(C)c1C(=O)Nc1nc(-c2ccc(F)c(F)c2)cs1	nt	71.6	nt	2.5	0.7	nt	-1.9
CS(=O)(=O)N1CCC(C(=O)Nc2c(F)cccc2F)CC1	2.5%	-5.0	-3.6	0.6	-0.7	3.1	-11.6
Cc1ccc([N+](=O)[O-])cc1NC(=O)C(C)N1CCCCC1 (centres undefined)	nt	-4.1	-6.0	2.3	2.6	-1.6	-1.3
O=C(CN1C(=O)NC2(CCCCC2)C1=O)Nc1ccccc1N1CCCCC1	-3.7%	14.3	nt	-6.7	0.6	nt	1.5
O=C(Nc1ccccc1)[C@@H]1CC=C[C@@H]2CCN(Cc3ccc(Cl)c(Cl)c3)C(=O)[C@@H]21	nt	-9.9	18.3	0.3	-0.9	-5.4	5.6
Cc1cccc(CCNC(=O)c2cc(=O)[nH]c3ccc(Br)cc23)c1	-12.4%	-26.4	-2.1	3.6	nt	-3.7	nt
Cc1nn(CC(=O)N2CCCCCC2)c(=O)c2cc3occc3n12	nt	0.4	-3.5	3.9	-3.7	19.9	-0.8
COc1ccccc1C(=O)NC(=O)COc1cc(Cl)ccc1Cl	-15.0%	-4.8	nt	-4.7	1.9	7.5	-11.3
COc1ccc(NC(=O)CNC(=O)c2nn(-c3ccc(OC)cc3OC)c(=O)c3ccccc23)c(OC)c1	nt	-3.4	93.0*	-0.8	-2.9	-0.7	2.3
COc1ccc(Nc2ncccc2C(=O)Nc2ccccc2)cc1	-2.8%	-11.8	-7.1	1.2	3.0	-3.7	-12.4
CC1CC/C(=C\c2ccc3c(c2)OCO3)C(=O)/C1=C/c1ccc2c(c1)OCO2 (centres undefined)	?	35.6	-31.1	0.6	9.8	6.1	2.5
CCCCOc1nc2ccccc2nc1C(C#N)S(=O)(=O)c1ccccc1 (centres undefined)	2.3%	10.6	19.9	1.2	-4.4	10.7	13.8
Cc1cccc(NC(=O)N(Cc2nc3ccccc3c(=O)[nH]2)C2CCCC2)c1	28.5%	nt	-4.8	2.1	0.0	0.6	3.5
CC(=O)NC(CCS(C)(=O)=O)C(=O)Nc1ccccc1C (centres undefined)	10.2%	-7.8	8.8	-2.0	2.0	4.7	3.4
OC(CNCCCCNCC(O)C(F)(F)F)C(F)(F)F (centres undefined)	8.9%	-20.1	19.5	3.8	-0.6	6.0	-5.5
Cc1csc2c(SCC(=O)NNS(=O)(=O)c3cccc(C(F)(F)F)c3)ncnc12	nt	12.5	-3.2	-2.7	-1.5	0.4	-3.9
COc1cc(O)cc(O)c1C(=O)/C=C/c1ccccc1	nt	73.1	10.0	-0.4	0.0	-0.7	15.8
O=C(O)CCC(=O)NNc1nc(-c2ccccc2)c2cc(Cl)ccc2n1	-1.8%	60.7	2.5	-4.0	-0.9	4.4	-9.0
O=C(N/N=C/c1ccc(F)cc1)c1c(O)c2ccccc2[nH]c1=O	17.3%	nt	-2.7	3.4	3.7	-1.7	6.7
O=C(NCCCNCc1ccccc1)c1ccncc1	4.5%	-12.2	7.0	-3.4	0.3	?	-6.9
O=C1C2CCCN2C(c2ccccc2F)N1c1ccc(Cl)cc1 (centres undefined)	1.8%	8.2	6.0	-3.5	-0.3	4.1	3.4
O=C(c1ccc(S(=O)(=O)N2CCC(c3nc4ccccc4s3)CC2)cc1)N1CCOCC1	1.8%	-5.2	24.7	0.1	0.1	-5.6	-10.1
O=C(CSc1nc2cc(C(=O)O)ccc2c(=O)n1-c1ccc(F)cc1)Nc1ccc(F)c(F)c1F	?	31.2	nt	0.2	1.9	-1.0	-4.7
O=S(=O)(N/N=C/c1ccc2c(c1)OCCO2)c1ccc(Cl)cc1	13.0%	8.3	12.5	0.6	-2.8	-1.3	12.7
CCCCN(C(=O)CSc1nnc(-c2ccc(Cl)cc2)o1)c1c(N)n(CC(C)C)c(=O)[nH]c1=O	4.3%	26.1	nt	3.5	0.1	nt	6.6
CCc1nnc(NC(=O)CSc2nnc3c(C)cc4c(C)ccc(C)c4n23)s1	14.2%	-7.7	-2.2	0.7	-3.1	1.1	4.4
CC(=O)Nc1ccc(C(=O)OCc2ccc(Cl)c(Cl)c2)cc1	-7.4%	-4.0	21.9	-1.6	0.3	2.9	-12.6
O=c1cc(C(O)C[N+](=O)[O-])occ1OCc1ccccc1 (centres undefined)	nt	3.6	3.0	1.7	4.3	-0.9	7.1
CCN(CC)C(=O)C1CCCN(C(=O)c2cc(COc3cccc(OC)c3)on2)C1 (centres undefined)	nt	0.1	1.9	-6.7	5.1	?	0.1
CC1CCCC(NC(=O)COC(=O)c2ccc(N(C)C)cc2)C1C (centres undefined)	18.3%	0.6	-25.3	-2.9	-6.2	2.9	-9.7
O=C(O)CC(Cc1ccc(Cl)cc1)C(=O)Nc1cc(Cl)ccc1Cl (centres undefined)	nt	21.7	6.1	0.4	-1.8	?	11.4
C/C(=N\NC(=O)c1ccccc1F)c1cccc(NC(=O)c2ccc(C)cc2)c1	12.7%	0.3	-2.7	-3.0	-1.5	-2.1	4.3
O=C(COc1cccc(NC(=O)c2ccco2)c1)c1ccc(F)cc1	-3.4%	-5.4	nt	-0.1	2.4	nt	-10.6
Cc1cc2cc(CNC(=O)c3ccc(S(=O)(=O)N(C)C)cc3)ccc2n1C	-3.6%	nt	3.6	-2.4	-7.2	1.3	-3.2
C[C@H](NC(=O)c1ccccc1)C(=O)OCC(=O)Nc1sccc1C(N)=O	nt	20.9	nt	6.4	3.1	nt	0.1
O=C(NNc1ccccc1[N+](=O)[O-])Nc1ccc(F)cc1	6.1%	nt	-6.7	nt	3.2	1.7	-1.8
CCOc1ccc(N(C(=O)CNC(=O)c2cccs2)C(C(=O)NCC2CCCO2)c2ccc(OC)c(OC)c2)cc1 (centres undefined)	-4.0%	-3.2	-4.5	0.7	0.4	5.1	-21.1
COC(=O)c1nc(NC(=O)c2ccccc2)n[nH]1	8.8%	97.4*	0.3	0.8	1.1	4.1	4.3
O=C(O)C1C(c2ccccc2)C(C(=O)Oc2ccccc2)C1c1ccccc1 (centres undefined)	-3.1%	-13.8	40.3	-2.3	2.6	-1.0	0.3

Exported with two lines to a compound: part of the list above
Values in the order: Vif A3G | ALR inh | Calb FLC | LANA-H2B inh | HNF4A DNA FP | RanGTP-Imp inh | Beta2AR agonist
CC1CCCC(NC(=O)COC(=O)c2ccc(N(C)C)cc2)C1C (centres undefined)
 : 18.3% | 0.6 | -25.3 | -2.9 | -6.2 | 2.9 | -9.7
C/C(=N\NC(=O)c1ccccc1F)c1cccc(NC(=O)c2ccc(C)cc2)c1
 : 12.7% | 0.3 | -2.7 | -3.0 | -1.5 | -2.1 | 4.3

(cont.)
canonical_smiles	Vif A3G	ALR inh	Calb FLC	LANA-H2B inh	HNF4A DNA FP	RanGTP-Imp inh	Beta2AR agonist
C(=C\c1ccccn1)/c1ccccn1	6.3%	-14.6	-5.6	4.5	3.2	1.0	-1.1
O=C(Nc1nnc(C2CC2)s1)c1cccc(S(=O)(=O)N2CCc3ccccc32)c1	-2.7%	-3.3	5.1	0.7	2.8	-2.4	0.7
CC(C)Oc1cccc(C(=O)NC(=S)Nc2ccc3c4c(cccc24)CC3)c1	1.7%	-5.9	2.5	0.3	12.8	-6.2	-37.7
Cc1ccc2c(c1)C(c1ccc(N3CCOCC3)cc1)=NNC(c1cccs1)=N2	3.4%	-0.2	?	3.9	4.4	-2.3	-9.5
Cc1cc(C)nc(SCC(=O)Nc2ccc(S(=O)(=O)Nc3cc(C)on3)cc2)n1	nt	15.0	3.0	-1.1	0.7	?	-0.4
COc1cc2c(cc1NC(=O)C(Cl)Cl)-c1ccc(NC(=O)C(Cl)Cl)cc1C2	-0.4%	nt	nt	nt	-11.2	nt	12.2
Cc1cccc(OCCN2C(=O)c3ccccc3C2=O)c1	10.5%	-11.3	-1.6	3.9	-2.4	-2.1	-2.1
O=C(O)c1cc(S(=O)(=O)N2CCCCC2)sc1Cl	?	-2.1	2.0	3.5	1.6	-1.6	2.5
COc1ccc(OC)c(S(=O)(=O)NC2CCN(Cc3ccccc3)CC2)c1	-1.5%	0.6	-8.0	5.5	-0.7	0.1	4.0
OC(CN1C2=NCCCN2c2ccccc21)c1ccc(Cl)cc1 (centres undefined)	0.5%	-13.4	-2.6	-5.3	-0.1	?	-6.5
NC(=O)C1(N2CCCCC2)CCN(Cc2ccccc2Cl)CC1	11.0%	-1.6	-2.7	-8.4	1.2	2.6	2.7
